MOR-DOR inv ag: inverse agonists of MOR-DOR heterodimerization, primary screen, cell-based, luminescence. Mu-type opioid receptor (Homo sapiens) + Delta-type opioid receptor (Homo sapiens), …. cell-based MOR-DOR heterodimer luminescence, inverse agonism. inhibition, % at 9.3 µM. 0.21% of 340,000 active; in the data active = inhibition above about 22%, passing the limit was not always enough;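 also: 0% = cells with DMSO and 100% = wells without cells with DMSO; values of inactives mirror those of a sister screen read the other way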
Pemphigus Ab inh: inhibitors of pemphigus antibody binding to DSG3, primary screen, biochemical, bead-based, flow cytometry, scFv-GFP; 0.48% of 310,000 active; DSG3-coupled beads, scFv-anti-DSG3-GFP binding; active compounds read low; binding (percent of control), % at 10 µM; Desmoglein-3 (Homo sapiens), P32926; AID 588358, 2011;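 active = binding more than 3 SD below its plate's average and above zero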;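 also: hits lower antibody fragment binding to DSG3; some compounds called inactive have numbers as strong as hits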
SUMO Mot1 rescue: yeast Mot1-301 growth rescue at high temperature, primary screen, SUMOylation pathway inhibitor project, S. cerevisiae, ATP luminescence, 38.5C. S. cerevisiae Mot1-301 growth rescue; percent above DMSO median, 100 means doubled. growth rescue, % at 18.8 µM. 1% of 320,000 active;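 active = every valid replicate shows activation above 250% relative to neutral control wells; inactive = the rest, any valid replicate at or below 250%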;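 also: OY570 slx delta 5 strain wells were the positive control but not used for scaling; some compounds called inactive have numbers as strong as hits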
PKA-R1A activ: activators of PKA-R1A holoenzyme, primary screen, biochemical, fluorescence polarization, Cy5-IP20, bovine R1A, mouse PKAc; AID 504707, 2011; 0.083% of 340,000 active; PKA-R1A dissociation; scaled: DMSO 0%, 113 µM cGMP 100%; activation, % at 11.4 µM;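 active = percent activation above the mean of all tested compounds plus 3 SD, cut at about 19% in these data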;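 also: higher means more PKAc released from R1A so a rise in polarization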
PfHsp90 yeast 2: growth inhibition of PfHsp90-expressing yeast, primary screen, antimalarial PfHsp90 inhibitor project, S. cerevisiae, BacTiter-Glo luminescence, single point, set 2. 0.32% of 310,000 active. inhibition, % at 9.4 µM. BacTiter-Glo ATP, 48 h; yeast lacking PDR1 and PDR3 efflux regulators;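 active = every replicate shows inhibition above about 80%, whatever the replicate mean, limit read from the data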;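 also: 0% = DMSO neutral controls and 100% = 20 µM radicicol positive controls; yeast relying on Plasmodium falciparum Hsp90 in place of its own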
Tat export inh: E. coli Tat export inhibitors, primary screen, MC4100, TorA-mCherry reporter, fluorescence, single point. inhibition, % at 10 µM. AID 488895, 2010. 0.036% of 340,000 active;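 active = mean replicate inhibition at least 50% and at least half of replicates individually reaching 50%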;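 also: exported cargo escapes ClpAP degradation while cytoplasmic cargo is degraded and loses fluorescence; 0% = median of neutral control wells and 100% = median of NaSCN control wells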
OPRM1-OPRD1 ag: agonists of OPRM1-OPRD1 heterodimerization, primary screen, cell-based, luminescence. Mu-type opioid receptor (Homo sapiens) + Delta-type opioid receptor (Homo sapiens), …. cells. activation, % at 9.3 µM. 0.3% of 340,000 active. AID 504326, 2011; in the data active = activation above about 18%;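 also: 0% = vehicle-treated cells and 100% = reference agonist; values of inactives mirror those of a sister screen read the other way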
Arr AP2 block: inhibitors of beta-arrestin/AP2 binding, primary screen, biochemical, GPCR trafficking, flow cytometry; 0.31% of 340,000 active; AID 504490, 2011; FITC-arrestin peptide / GST-AP2 beads; AP2 beta2 appendage carries R879A mutation; beta-arrestin 1 C-terminal peptide binding to AP2 beta2-adaptin appendage (human); inhibition, % at 10 µM;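 active = inhibition above a set limit, near 3 SD of compounds lacking own fluorescence, cut at about 54% in these data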;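 also: plate controls were DMSO wells for no effect and 5 µM unlabelled arrestin peptide for full effect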
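System: GST-AP2 R879A glutathione beads | Also added: FITC-arrestin peptide, 50 nM | Times: 12 min plus 1 h, RT | Signal: Bead flow cytometry, FITC channel | Buffer or medium: PBS with 0.05% Tween 20 and 0.1% BSA | Read-out basis: Percent drop in bead-associated FITC signal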
* = called active by the depositor; . = no result given. An excerpt, so the mix of outcomes need not match the whole.

1. O=C(COc1ccccc1)NNC(=O)COc1ccc([N+](=O)[O-])cc1
2. COc1ccc(OC)c(S(=O)(=O)N2CCN(c3ccc(F)cc3)CC2)c1
3. COc1ccc(OC2C(=O)N(Cc3ccc4c(c3)OCO4)C2c2cccs2)cc1 (stereo not given)
4. COCCN(CCOC)C(=O)CCn1c(=O)oc2ccccc21
5. CC1(C)CC2CC(C)(CN2C(=O)c2ccc([N+](=O)[O-])cc2[N+](=O)[O-])C1 (stereo not given)
6. O=C(O)Cc1cc(I)c(Oc2ccc(O)c(I)c2)c(I)c1
entry no.,1,2,3,4,5,6
MOR-DOR inv ag,-1,-1,10,2,-37,.
Pemphigus Ab inh,106,106,88,103,100,.
SUMO Mot1 rescue,12,-6,17,43,-7,-16
PKA-R1A activ,-2,0,6,-2,-9,.
PfHsp90 yeast 2,0,1,-9,42,-30,.
Tat export inh,2,-9,-3,2,-4,.
OPRM1-OPRD1 ag,0.1,0.3,-1.8,-0.4,7.4,.
Arr AP2 block,-10,24,-1,1,7,.

Looked up above.
COc1ccc(OC2C(=O)N(Cc3ccc4c(c3)OCO4)C2c2cccs2)cc1 (stereo not given) – PKA-R1A activ = 6
COc1ccc(OC)c(S(=O)(=O)N2CCN(c3ccc(F)cc3)CC2)c1 – Tat export inh = -9
O=C(O)Cc1cc(I)c(Oc2ccc(O)c(I)c2)c(I)c1 – SUMO Mot1 rescue = -16
CC1(C)CC2CC(C)(CN2C(=O)c2ccc([N+](=O)[O-])cc2[N+](=O)[O-])C1 (stereo not given) – Pemphigus Ab inh = 100

The listing continues.
7. O=C(COc1ccc(Cl)cc1)Nc1ccccc1CO
8. Cc1onc(-c2ccccc2Cl)c1C(=O)NNC(=O)C1CCN(Cc2ccccc2)CC1
9. COCCCNC(=O)CC(NS(=O)(=O)c1ccc(C)cc1)c1ccc(OC)cc1 (stereo not given)
10. COc1ccc2[nH]c3c(C)c4ccncc4c(C)c3c2c1
11. O=C(CCNC(=O)c1ccccc1Cl)NN=Cc1ccco1
12. COc1c(Cl)cnn(-c2ccc(C)cc2)c1=O
entry no.,7,8,9,10,11,12
MOR-DOR inv ag,-1,9,16,-15,10,3
Pemphigus Ab inh,100,102,101,.,123,101
SUMO Mot1 rescue,-3,-15,15,-13,-10,-16
PKA-R1A activ,2,-2,0,4,-1,6
PfHsp90 yeast 2,-5,4,1,12,-8,-38
Tat export inh,-5,1,5,-10,-7,-10
OPRM1-OPRD1 ag,0.2,-1.7,-2.8,3.0,-1.9,-0.5
Arr AP2 block,35,12,-4,14,30,-6

Sorted by value in Arr AP2 block (rising): 3 of the compounds above.
# | molecule | Arr AP2 block
12 | COc1c(Cl)cnn(-c2ccc(C)cc2)c1=O | -6
8 | Cc1onc(-c2ccccc2Cl)c1C(=O)NNC(=O)C1CCN(Cc2ccccc2)CC1 | 12
10 | COc1ccc2[nH]c3c(C)c4ccncc4c(C)c3c2c1 | 14

Additional results:
13. Cc1ccc(C)c(S(=O)(=O)N2CCN(C(=O)[C@@H](NC(=O)c3ccc(F)cc3)C(C)C)CC2)c1
14. O=C(O)c1ccc(N=C2SCC(=O)N2Cc2ccccc2)cc1
15. CCOc1ccc(/C=N/NC(=O)Cc2cccs2)cc1
16. COc1cc2cc(-c3ccc(O)cc3O)nc(C)c2cc1OC
entry no.,13,14,15,16
MOR-DOR inv ag,-1,11,.,2
Pemphigus Ab inh,94,105,89,111
SUMO Mot1 rescue,-10,-3,-13,10
PKA-R1A activ,1,-3,.,14
PfHsp90 yeast 2,-1,27,.,6
Tat export inh,0,12,.,5
OPRM1-OPRD1 ag,0.1,-2.2,.,-0.5
Arr AP2 block,0,-19,41,12

Structural class, the compounds so far containing a nitro group on carbon (2)
1. O=C(COc1ccccc1)NNC(=O)COc1ccc([N+](=O)[O-])cc1
5. CC1(C)CC2CC(C)(CN2C(=O)c2ccc([N+](=O)[O-])cc2[N+](=O)[O-])C1 (stereo not given)
entry no.,1,5
MOR-DOR inv ag,-1,-37
Pemphigus Ab inh,106,100
SUMO Mot1 rescue,12,-7
PKA-R1A activ,-2,-9
PfHsp90 yeast 2,0,-30
Tat export inh,2,-4
OPRM1-OPRD1 ag,0.1,7.4
Arr AP2 block,-10,7

Given with values under each structure: entries from further up
Value order – MOR-DOR inv ag | Pemphigus Ab inh | SUMO Mot1 rescue | PKA-R1A activ | PfHsp90 yeast 2 | Tat export inh | OPRM1-OPRD1 ag | Arr AP2 block
13: Cc1ccc(C)c(S(=O)(=O)N2CCN(C(=O)[C@@H](NC(=O)c3ccc(F)cc3)C(C)C)CC2)c1
  -1 | 94 | -10 | 1 | -1 | 0 | 0.1 | 0
14: O=C(O)c1ccc(N=C2SCC(=O)N2Cc2ccccc2)cc1
  11 | 105 | -3 | -3 | 27 | 12 | -2.2 | -19
